# VDR inhibitor – blocks the human vitamin D receptor; VDR-SRC2-3 peptide fluorescence polarization, 2 h; Potency, µM, without a hit: max response, negative = inhibition, hits mostly inhibitors; hit rate 0.93% among 400,000; AID 504847; active = well fitted inhibition curve with a large enough effect; inconclusive = small, poorly fitted or top-dose-only effect, or another doubt; inactive = no such curve, though single readings can be large or run the other way; also: series mostly up to about 120 µM
# Target sequence (P11473 whole entry, looked up): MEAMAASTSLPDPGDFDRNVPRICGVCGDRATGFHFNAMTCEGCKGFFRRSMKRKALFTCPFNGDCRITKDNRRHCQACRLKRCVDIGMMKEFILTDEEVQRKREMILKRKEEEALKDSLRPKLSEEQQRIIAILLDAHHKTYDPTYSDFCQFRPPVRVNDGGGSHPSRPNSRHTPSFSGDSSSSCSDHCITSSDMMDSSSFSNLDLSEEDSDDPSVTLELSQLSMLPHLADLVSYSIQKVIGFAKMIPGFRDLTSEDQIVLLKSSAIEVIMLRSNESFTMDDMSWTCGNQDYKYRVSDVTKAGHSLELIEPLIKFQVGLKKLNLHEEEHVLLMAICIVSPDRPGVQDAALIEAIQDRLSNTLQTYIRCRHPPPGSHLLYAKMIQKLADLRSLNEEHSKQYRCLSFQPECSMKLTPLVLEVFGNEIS
#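 Fluorescence polarization assay of small-molecule disruption of VDR binding to coregulator peptide SRC2-3. Compounds and controls pin-transferred, then read after 2 h incubation at ambient room temperature.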
# The depositor's hits bear a star; ? = inconclusive; & = joins results of further samples; [ ] = dose if it differs, or a comment. % is scaled to controls: 0 for no effect and ±100 for the full control effect; potency is read from the fitted curve at half-maximal effect.
molecule	VDR inhibitor
COCCOc1cc2ncnc(N3CCC(C(=O)O)CC3)c2cc1OCCOC	-15.4%
CC(Oc1ccc(Cl)cc1)C(=O)N/N=C/c1ccsc1 (configuration not stated)	-12.5%
O=C(O)c1ccc(-c2ccc(/C=C3\NC(=O)N(Cc4ccc(Cl)cc4)C3=O)o2)cc1Cl	79.4µM*
CCOC(=O)[C@H]1[C@H]2COc3ccc(Cl)cc3[C@@H]2N2C(=O)c3cc(Br)ccc3NC(=O)[C@@]12C	6.5%
CCCCOc1ccc(C2NC(=O)NC(C)=C2C(C)=O)cc1OCC (configuration not stated)	-12.0%
Clc1ccc(CSc2nc3ccncc3[nH]2)cc1	-5.3%
Cc1ccc(S(=O)(=O)Nc2ccc(C(=O)NC3CC3)cc2)cc1	8.6%
O=C(CN1C(=O)C2(SCC(=O)N2c2ccccc2)c2ccccc21)Nc1ccccc1C(F)(F)F (configuration not stated)	8.0%
O=C1CSC(=S)N1N=Cc1ccc(Cl)s1	?
Cn1c(=O)c(=O)n(C)c2cc(NC(=O)c3ccccc3Br)ccc21	-24.8%
CCOC(=O)C1=CN(Cc2cccc(F)c2)S(=O)(=O)N(CC)C1c1ccc(C(F)(F)F)cc1 (configuration not stated)	-21.8%
Cc1ccc(C(=O)N/N=C\c2ccc(-c3ccc(Cl)cc3)o2)cn1	-5.2%
Cc1ccc(NC(=O)Cn2nnc(C(=O)NCc3ccc4c(c3)OCO4)c2N)cc1Cl	6.5%
CCOC(=O)c1c(NC(=O)c2ccoc2C)sc(C)c1C	16.6%
CC(C)c1ccccc1NC(=O)CNCCOc1ccccc1F	1.5%
N#Cc1nc(-c2ccc(OCc3ccccc3)cc2)oc1NCCCn1ccnc1	-2.3%
Cc1c(NC(=O)OCCSc2nc(N(C)C)nc(N(C)C)n2)sc(=S)n1C	-11.6%
CCN(Cc1ccccc1)C1CCN(Cc2ccccc2)CC1	-4.2%
COC(=O)C1CCN(C(=O)CSc2nnc(-c3ccncc3)o2)CC1	-1.4%
COCCN(CCOC)S(=O)(=O)c1ccc(C(=O)Nc2nc(-c3ccncc3)cs2)cc1	4.4%
CC1CCCN(C(=O)COC(=O)Cc2c[nH]c3ccccc23)C1 (configuration not stated)	18.7%
O=S(=O)(NC1=NCCC1)c1cccc(NC(=S)Nc2ccc(OC(F)F)cc2)c1	-20.7%
CCN(CC)c1ccc(NC(=O)c2cnc3ccccn3c2=O)c(C)c1	5.2%
OC(COc1ccc(Cl)c2ccccc12)CN1CCN(c2ccccn2)CC1 (configuration not stated)	-10.4%
Cc1cc(C)n(CCN(C)c2nc3nonc3nc2NC2CC2)n1	28.3%
Cc1ccc(NC(=O)Nc2ccccc2C(N)=O)cc1	-12.1%
Cc1ccc(S(=O)(=O)N2CCC(c3nc(-c4cccs4)nc4ccccc34)CC2)cc1	-11.0%
O=C(c1cccs1)N1CCC2(O)CCCCC2C1c1ccc(F)cc1 (configuration not stated)	-12.9%
COc1ccc(C(=O)NCCc2ccc(C(F)(F)F)cc2)cc1S(=O)(=O)N1CCOCC1	-17.9%
COc1cccc(NC(=O)CN2C(=O)C(c3ccc(C)cc3)=NC23CCCCCC3)c1	0.0%

# A draw from above in order of heavy-atom count, lowest first.
molecule	VDR inhibitor
Cc1c(NC(=O)OCCSc2nc(N(C)C)nc(N(C)C)n2)sc(=S)n1C	-11.6%
N#Cc1nc(-c2ccc(OCc3ccccc3)cc2)oc1NCCCn1ccnc1	-2.3%
CCOC(=O)C1=CN(Cc2cccc(F)c2)S(=O)(=O)N(CC)C1c1ccc(C(F)(F)F)cc1 (configuration not stated)	-21.8%

# Going on with the list:
molecule	VDR inhibitor
COc1ccccc1-c1sc2ccccc2c1-c1ccc(Br)nc1	-0.4%
COc1ccc(OC)c(CCNC(=O)CCC(=O)N2CCOc3ccc(C)cc32)c1	-18.1%
C/C(=N\NC(=O)C1=NNC(=O)C1C)c1cccs1 (configuration not stated)	9.8%
COc1ccccc1CN1CC(C(=O)NCc2cccc(C)n2)CCC1=O (configuration not stated)	8.6%
O=C1c2ccccc2CN1C(CO)Cc1ccccc1 (configuration not stated)	-6.3%
O=C(CN(Cc1ccco1)C(=O)CCC(=O)Nc1ccccn1)NCc1ccccc1	-14.3%
O=C(NCCOc1ccccc1F)c1cccc(S(=O)(=O)N2CCN(c3ccccc3)CC2)c1	0.8%
Cc1noc(/C=C/N(C)C)c1S(=O)(=O)N1CCCC(C(=O)Nc2ccccc2F)C1 (configuration not stated)	-1.6%
Cc1cc(C)c(S(=O)(=O)NCC23C=CC(O2)C2C(=O)N(c4ccccc4)C(=O)C23)c(C)c1 (configuration not stated)	?
COc1cc2c(cc1OC)C(c1ccc(C)cc1)NC(=O)C2 (configuration not stated)	-12.4%
CCOC(=O)CC(=O)CSc1nc(-c2cccnc2)cc(C)c1C#N	-1.4%
O=C(c1ccc(S(=O)(=O)Cc2ccccc2Cl)c([N+](=O)[O-])c1)N1CCOCC1	-3.7%
COc1ccc(C2CC(c3ccccc3C)n3nc(N)nc3N2)cc1 (configuration not stated)	-18.2%
O=C(NNC(=O)c1ccccc1[N+](=O)[O-])c1ccccc1[N+](=O)[O-]	-7.0%
COc1cccc(-c2csc(N3CCN(C(=S)Nc4ccccc4OC)CC3)n2)c1	-5.9%
COc1cccc(-c2nnc(SCc3nc4ccccc4s3)n2C)c1	13.3%
C=CCN1CN(S(=O)(=O)c2cccs2)c2nc3ccccc3nc21	4.5%
COC(=O)c1ccc(C)c(NC(=O)CSc2nc3[nH]c(=O)cc(O)c3s2)c1	-2.8%
Cc1cnn(-c2cc(N/N=C/c3ccccc3)ncn2)c1	21.4%
CCN(CC)C(=O)CSc1nnc(-c2cnccn2)n1-c1ccc(C)cc1	17.4%
Cc1cc(C)c(OCCN2CC(C)OC(C)C2)c(Br)c1 (configuration not stated)	-7.8%
CCc1nc2ccc(C(=O)N3CCN(c4cccc(Cl)c4)CC3)cc2nc1CC	-9.2%&3.5%
CN1CCN(c2oc(/C=C/c3ccccc3)nc2C#N)CC1	-10.5%
O=C(O)CCc1ccc(-c2cccs2)n1-c1ccc(C(=O)O)cc1	-29.3%
CN(CC(=O)Nc1cccc2ccccc12)c1ccc(S(=O)(=O)N2CCOCC2)cn1	-9.1%
O=C(NCc1csc(-c2cccs2)n1)c1ccsc1	11.2%
CC(NC(=O)c1ccc(NC(=O)CC2SC(N3CCCC3)=NC2=O)cc1)c1ccc(F)cc1 (configuration not stated)	2.5%
COC(=O)c1ccccc1NC(=O)CSc1nc(Nc2ccccc2)nc(N2CCOCC2)n1	-18.7%
OC(COc1ccccc1)CN1CCN(C(c2ccccc2)c2ccccc2)CC1 (configuration not stated)	-7.5%
CCc1ccc(-c2nn(CC(=O)NC3CCCCC3)c3c2cnc2ccc(OC)cc23)cc1	15.0%
COc1ccc(-n2ccnc2SCC(=O)Nc2ccc(OC)cc2OC)cc1	13.2%
S=C(N/N=C1\C2CN3CCN(C2)CC1(c1ccccc1)C3)Nc1ccccc1	-8.1%
CS(=O)(=O)N(Cc1ccccc1)c1ccc(C(=O)NN=C2CCCCCC2)cc1	-18.8%
Cc1ccc(CN2CC(C(=O)Nc3ccc(F)c([N+](=O)[O-])c3)CC2=O)cc1 (configuration not stated)	-17.3%
Cc1ccc(CN2CCSc3ccc(C(=O)N4CCN(c5ncccn5)CC4)cc32)cc1	3.2%
CCc1ccc(NC(=O)Cn2c(=O)n(CCCCC(=O)NCCc3ccccc3)c(=O)c3ccccc32)cc1	-3.0%
COC(=O)C1Cc2c([nH]c3ccccc23)C(C)N1 (configuration not stated)	0.4%
O=S(=O)(c1cccs1)N1CN(C2CCCC2)c2nc3ccccc3nc21	24.8%
Cc1cc(Br)c(OCc2ccc(C(=O)N/N=C/c3ccc[nH]3)cc2)c(Br)c1	5.7%
COc1ccc(C2C3=C(NCCN=C3c3ccccc3)C(=O)N2c2ccccc2)c(OC)c1 (configuration not stated)	0.7%

# An excerpt from above in order of their number in VDR inhibitor, lowest first:
SMILES | VDR inhibitor
O=S(=O)(NC1=NCCC1)c1cccc(NC(=S)Nc2ccc(OC(F)F)cc2)c1 | -20.7%
OC(COc1ccc(Cl)c2ccccc12)CN1CCN(c2ccccn2)CC1 (configuration not stated) | -10.4%
O=C(CN1C(=O)C2(SCC(=O)N2c2ccccc2)c2ccccc21)Nc1ccccc1C(F)(F)F (configuration not stated) | 8.0%

# Continuation.
molecule	VDR inhibitor
COc1ccc(CCN2C(=O)CC(C(N)=O)SC2=Nc2ccc(F)cc2)cc1OC (configuration not stated)	-11.1%
NNC(=O)c1cc(C2CC2)nc2ccc(Br)cc12	5.3%
NS(=O)(=O)c1ccc(-c2ccc(/C=N/NC(=O)c3ccc([N+](=O)[O-])cc3)o2)cc1	-10.2%
O=C(O)CCN(Cc1ccccc1)S(=O)(=O)c1ccc(Cl)cc1F	7.5%
CC(C)=CCc1c(O)cc2c(c1O)C(=O)CC(c1ccccc1)O2 (configuration not stated)	-3.6%
Cc1ccc(-c2cc(-c3c(C)nn(C)c(=O)c3N)[nH]n2)cc1	3.8%
CC1=C(C(=O)Nc2ccc(C)cc2C)C(c2cccc(Cl)c2)n2nc(C(=O)OC(C)C)nc2N1 (configuration not stated)	-24.5%
O=C(Cn1cnc2ccccc2c1=O)NCC(=O)N1CCOCC1	8.3%
C=CCNC(=O)CSc1nnc(-c2cccs2)o1	4.3%
COc1ccc(CNC(=O)CN(Cc2ccccc2Cl)C(=O)c2csnn2)cc1	-0.7%

# 5 records drawn at random from the list so far, as already listed:
molecule	VDR inhibitor
O=C(O)CCN(Cc1ccccc1)S(=O)(=O)c1ccc(Cl)cc1F	7.5%
NNC(=O)c1cc(C2CC2)nc2ccc(Br)cc12	5.3%
C=CCNC(=O)CSc1nnc(-c2cccs2)o1	4.3%
COc1ccc(CNC(=O)CN(Cc2ccccc2Cl)C(=O)c2csnn2)cc1	-0.7%
CC(C)=CCc1c(O)cc2c(c1O)C(=O)CC(c1ccccc1)O2 (configuration not stated)	-3.6%

# More compounds follow:
SMILES | VDR inhibitor
COc1ccc(C(=O)NC2CCN(Cc3ccccc3)C2)cc1S(=O)(=O)N1CCOCC1 (configuration not stated) | ?
COc1ccccc1C(CCNS(=O)(=O)c1ccc(C)cc1)c1ccco1 (configuration not stated) | -5.6%
Cc1noc(C)c1C(=O)OCC(=O)Nc1ccccc1SCC#N | 11.8%
CCOc1ccc(N(C(C)C(=O)NN=C2CCCCCCC2)S(C)(=O)=O)cc1 (configuration not stated) | 6.3%
CN1C(=S)SC(C)(C)C1NO (configuration not stated) | 23.9%
O=C(CP(=O)(c1ccccc1)c1ccccc1)Nn1cnnc1 | 12.2%
COc1ccnc(N2CCN(c3cccc(C(F)(F)F)c3)CC2)c1C#N | 3.0%
COc1cc(Cl)c(C)cc1NC(=O)CSc1nnc(CCC(=O)O)c(=O)[nH]1 | 20.7%
N#C/C(=C\c1ccc(F)c(F)c1)C(=O)NC1CCCCC1 | -7.8%
COCCn1c(SCC(=O)NNC(=O)c2ccccc2)nc2ccccc2c1=O | 7.1%
CC(CCc1ccccc1)NC(=O)CNC(=O)N1CC(=O)Nc2ccccc21 (configuration not stated) | -11.2%
CCc1cc2c(cc3c(=O)n(CC(=O)NCCc4ccccc4)ncn32)s1 | 10.2%
CCCCN1C(=O)/C(=C(/C#N)C(=O)N2CCCC2)c2ccccc21 | 44.7µM*
COc1cccc(Cn2c(=O)c(-c3ccc(F)cc3)nc3cnc(N4CCNCC4)nc32)c1 | 62.5%[activator]
COc1ccc(CCNC(=O)c2cc(S(=O)(=O)N3CCOCC3)cn2C)cc1OC | -8.8%
CCOc1ccc(CCNC(=O)c2nn(-c3ccc(OC)cc3)c(=O)c3c2c2ccccc2n3C)cc1OCC | 0.6%
Cc1ccc(S(=O)(=O)c2nc(-c3ccco3)oc2SCC(N)=O)cc1 | -4.2%
Cc1ccccc1CN1C(=O)c2ccccc2Sc2ccc(C(=O)NCCCN3CCOCC3)cc21 | 10.6%&-2.5%
O=C(COC(=O)c1ccco1)Nc1nc2ccc([N+](=O)[O-])cc2s1 | -6.4%
N[C@@H](CO)c1nnc([C@H](CCC(=O)O)NC(=O)C2CCNCC2)o1 | -27.0%
N#Cc1c(NC(=O)CSc2ncnc3sccc23)oc(-c2ccco2)c1-c1ccco1 | 1.7%
Cc1ccc(NC(=O)c2cc(S(=O)(=O)NC3CCCCCC3)ccc2F)cc1F | 1.4%
Cc1cccc(NC(=S)NN2CCN(C)CC2)c1 | 15.7%
Cc1ccc(Cc2c(C)[nH]c(=S)[nH]c2=O)cc1 | -15.9%
Cc1ccc(NC(=O)C[n+]2cc(-c3ccccc3)n3c2CCC3)c(C)c1 | -3.4%
C/C(=N\N1CCN(c2ccccc2)CC1)c1ccco1 | -9.3%
COc1ccc(CC(=O)Nc2nc(C)cs2)cc1 | -3.7%
Cc1nc(C)c(C(=O)N/N=C/c2ccco2)s1 | 1.0%
CCCCNC(=S)NNC(=O)c1ccncc1 | 10.6%
OCCC1CN(Cc2cccn2-c2cccnc2)CCN1CCc1ccccc1 (configuration not stated) | 0.0%
Cc1ccccc1-n1nc2c(c1NC(=O)/C=C\c1ccc3c(c1)OCO3)CSC2 | -11.7%
O=S(=O)(NCC(c1ccccc1)N1CCC(O)CC1)c1ccc(Cl)cc1 (configuration not stated) | -24.9%
Cc1ccc(C(C(=O)NC(C)(C)C)N(Cc2cccs2)C(=O)c2ccc3c(c2)OCCO3)cc1 (configuration not stated) | 14.4%
Cc1ccc(S(=O)(=O)NCC(=O)NCC(=O)NC(C)c2ccccc2Br)cc1C (configuration not stated) | -4.2%
CCOC(=O)c1c(C)[nH]c(N=Nc2cc(C(=O)O)cc(C(=O)O)c2)c1C | -6.7%
COc1ccccc1NC(=O)c1ccc(NC(=O)COC(=O)c2cncc(Br)c2)cc1 | 4.1%
Cc1ccc2c(c1)-c1cc(C)nn1C(c1ccc3c(c1)OCO3)N2 (configuration not stated) | 3.6%
CCc1c(C)nc(N2CCN(c3ccc(OC)cc3)CC2)[nH]c1=O | -19.9%
CCOc1ccc(CCNC(=O)CN2C(=O)NC3(CCc4ccccc43)C2=O)cc1OCC (configuration not stated) | -11.4%
NC(=O)c1ccc(-n2nnnc2SCC(=O)c2ccc(O)c(O)c2)cc1 | 7.2%

# From PubChem

# A portion of the library; rates above refer to the full screens.
